Source: PubChem BioAssay
A488 fluor: compound fluoresces in the A488 spectral region; compound autofluorescence, A488 spectral region, dye equivalency; hits give high values; max dye equivalency, M; hit rate 0.1% among 59,000; active = above 10 nM dye equivalent; inconclusive = 1 to 10 nM; inactive = 1 nM or less; about half of its hits are not listed in these tables;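 note: highest value over a series up to 38 µM; compound alone in buffer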
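Autofluorescence read at ex 480/em 540 nm after 15 min RT in 100 mM Tris pH 8.0; compound signal normalized to A488 standard series on each plate, reported as dye-equivalent concentration at each test concentration.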
TSHR ag: activates the human thyroid stimulating hormone receptor; HEK293-CNG-TSHR cells (CNG channel as cAMP sensor), membrane potential dye, cAMP; Potency, µM (doses to about 57.1 µM), for inactives: at the top dose activation, hits mostly activators; hit rate 0.48% among 73,000; active = well fitted activation curve of enough size with the parental cells flat; inconclusive = any curve in the parental cells; inactive = parental cells flat and receptor cells flat or falling; note: potency is the fitted concentration of half-maximal effect; % of control where 0% means no effect; weak receptor curves with flat parental cells got no call and are not listed
Target sequence (P16473 whole entry, looked up): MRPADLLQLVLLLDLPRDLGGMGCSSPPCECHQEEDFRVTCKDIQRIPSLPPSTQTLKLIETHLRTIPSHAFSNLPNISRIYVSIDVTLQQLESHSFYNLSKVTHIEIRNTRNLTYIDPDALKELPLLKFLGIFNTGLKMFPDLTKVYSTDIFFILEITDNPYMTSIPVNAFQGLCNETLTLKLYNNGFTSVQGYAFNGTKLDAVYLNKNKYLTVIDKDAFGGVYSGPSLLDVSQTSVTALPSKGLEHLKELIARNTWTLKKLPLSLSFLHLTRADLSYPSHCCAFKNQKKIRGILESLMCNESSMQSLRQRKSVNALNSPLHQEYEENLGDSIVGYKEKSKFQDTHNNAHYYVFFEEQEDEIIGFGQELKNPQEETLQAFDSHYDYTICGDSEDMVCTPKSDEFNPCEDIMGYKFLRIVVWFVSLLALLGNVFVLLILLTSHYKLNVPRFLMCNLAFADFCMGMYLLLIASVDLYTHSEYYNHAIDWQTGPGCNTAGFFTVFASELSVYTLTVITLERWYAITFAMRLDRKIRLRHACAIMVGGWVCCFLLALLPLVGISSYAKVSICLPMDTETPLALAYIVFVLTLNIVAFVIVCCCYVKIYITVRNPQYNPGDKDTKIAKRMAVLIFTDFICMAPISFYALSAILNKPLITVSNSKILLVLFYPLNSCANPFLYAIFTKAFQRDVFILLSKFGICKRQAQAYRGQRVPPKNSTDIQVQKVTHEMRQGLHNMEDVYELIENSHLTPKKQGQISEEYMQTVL
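HEK 293 cells stably expressing TSHR and a modified CNG channel, with CNG-only parental cells as counterscreen, were preloaded 60 min at room temperature with membrane potential dye containing 100 uM RO 20-1724. Compound exposure was 30 min, and depolarization was read as fluorescence at 590 nm.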
A647 fluor: A647 region autofluorescence | Compound fluorescence, A647 channel (570/671 nm), Tris buffer | max dye-equivalent concentration, M | 59,000 tested, under 10 active | AID 592; active means above 1 µM dye equivalent; inconclusive means 0.1 to 1 µM; inactive means 0.1 µM or less;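 note: values scaled relative to a standard on each plate; highest value over a series up to 38 µM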
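Fluorescence read (570 nm ex, 671 nm em) after 15 min RT incubation of compounds in 100 mM Tris buffer, pH 8.0; values expressed as dye-equivalent concentration against a six-point A647 standard series on each plate.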
AID923: qHTS Assay for Allosteric/Competitive Inhibitors of Caspase-1: Spectroscopic Profiling in AFC Spectral Region; compound fluorescence, AFC spectral region (405/520 nm); almost no hit is shown here; Potency, µM (titrated, usually from 57.5 µM), without a hit: top-dose fluorescence increase, actives largely listed as activators; AID 923, 2007; hit rate 1.1% among 75,000; active = well fitted activation curve with a large enough effect; inconclusive = small, poorly fitted or top-dose-only effect;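 note: potency is the fitted concentration of half-maximal effect; 0% is about no effect; scaled to a free AFC standard on each plate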
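Titrations up to 57 uM read every 20 sec for 3 min (405/520 nm) with 50 nM caspase 1 and 5 uM Ac-WEHD-AFC, pH 7.5 HEPES buffer. Fluorescence-vs-time intercept gave baseline, scaled against on-plate AFC standard.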
Resorufin autofl: compound fluoresces in the resorufin spectral region. Compound fluorescence, resorufin region 547/598 nm, buffer; hits give high values. max dye-equivalent concentration, M. hit rate 0.04% among 59,000. AID 588; active = above 10 nM dye equivalent; inconclusive = 1 to 10 nM; inactive = 1 nM or less; a few of its hits are not listed in these tables; note: highest value over a series up to 38 µM
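Compounds in 100 mM Tris buffer, pH 8.0, incubated 15 min at room temperature, then read with 547 nm excitation and 598 nm emission filters. Fluorescence was converted to dye-equivalent concentration using an on-plate six-point resorufin standard curve.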
Numbers without * were called inactive; i = inactive; ? = inconclusive; . = no result given; & = joins results of further samples; [ ] = another dose, or the depositor's remark.

SMILES | A488 fluor | TSHR ag | A647 fluor | AID923 | Resorufin autofl
Oc1ccccc1-c1cc(-c2cccc(F)c2)n[nH]1 | i | 1.7% | 2.34e-08 | -0.1% | i
COc1ccc(-c2c(C)oc3cc(O)cc(O)c3c2=O)cc1OC | . | 2.6% | . | 15.7% | .
COc1ccc2[nH]cc(C(=O)CN3CCCCC3C)c2c1 (centres undefined) | i | ? | 1e-09 | 1.9% | i
Cc1ccc(OCCCC(=O)Nc2nncs2)cc1 | i | . | 2.2e-08 | 0.9% | i
c1ccc(CNc2ccnc(-c3cccnc3)n2)cc1 | i | 13.4% | 1.07e-08 | 2.7% | i
COc1ccccc1OCCCCCNCCO | . | 6.8% | . | 1.8% | .
O=c1c(CCc2ccccc2)nc2cnc(N3CCOCC3)nc2n1C1CC1 | i | -0.1% | 1e-09 | 8.2% | i
CCOC(=O)c1cc(C(=O)OCC)c2cc(Br)ccc2n1 | i | -22.4% | 1.31e-08 | -2.9% | i
COc1cccc(-c2cc(C(F)(F)F)nc(N3CCOCC3)n2)c1 | i | . | 3.86e-08 | 0.7% | i
COC(=O)C1CCN(C(=O)COC(=O)Cn2cnnn2)CC1 | i | 5.3% | 7.7e-09 | -0.3% | i
Cc1cc2ccccc2c(=O)n1CC(=O)NCC(=O)N1CCN(c2cccc(Cl)c2)CC1 | i | 0.2% | 1.91e-08 | 0.6% | i
CCc1ccc(NC2=NC(C(=O)NC3CCCCC3)CC(=O)N2)cc1 (centres undefined) | i | -18.6% | 1e-09 | -1.1% | i
CC(C)(C)OC(=O)NCCc1nnc(S(=O)(=O)Cc2ccc(Cl)cc2Cl)o1 | i | -11.9% | 5e-09 | 0.6% | i
COc1cc2c(c(OC)c1)C(c1ccncc1)CC(=O)N2 (centres undefined) | . | 21.9% | . | 1.0% | .
COCCn1c(COc2ccccc2)nnc1SCC(N)=O | i | 2.6% | 6.2e-09 | -2.8% | i
COc1cccc(C(=O)Nc2c(F)c(F)c(F)c(F)c2F)c1 | i | . | 1.9e-09 | -0.7% | i
O=C(O)CSc1cccc2cccnc12 | . | -4.7% | . | 1.3% | .
CCOc1cc(C(=O)Nc2c3c(nn2C(C)(C)C)CS(=O)C3)cc(OCC)c1OCC (centres undefined) | i | 0.9% | 3.03e-08 | 0.9% | i
COc1ccc(-c2ccc3c(n2)CCCN3C[C@H](O)CN2CCCc3nc(-c4ccc(Br)cc4)ccc32)cc1 | . | -6.6%[11.4 µM] | . | 1.3%&5.5%[11.5 µM] | .
Cn1c(N)c(C(=O)CSc2nc3ccccc3n2-c2ccccc2)c(=O)n(C)c1=O | i | 4.6% | 1.58e-08 | -6.5% | i
CSC1=C(C#N)C(CC(C)C)C(C(C)=O)=C(C)N1 (centres undefined) | i | 27.3% | 3.74e-08 | 2.0% | i
CC(C)=CCC1(CC=C(C)C)C(=O)C(C(=O)c2ccccc2)=C2OC(C)(C)CCC2(CC=C(C)C)C1=O (centres undefined) | . | 5.4%[11.4 µM] | . | 0.4%[11.5 µM] | .
CC(C)c1nnc(NC(=O)CCC(=O)NCC2CCCO2)s1 (centres undefined) | i | 24.3% | 1.86e-08 | -0.5% | i
CC(c1nnc(SCn2nnc3ccccc3c2=O)n1-c1ccc(Cl)cc1)N(C)C (centres undefined) | i | 1.8% | 2.31e-08 | -0.5% | i
Cc1sc(NC(=O)CSc2nnnn2C2CCCC2)c(C#N)c1C | i | ? | 8e-09 | 0.9% | i
O=C(Nc1ccon1)c1cccc(Cl)c1 | i | ? | 1e-09 | -1.7% | i
Cc1cc(C)cc(N(C(C)C(=O)Nc2c(C)n(C)n(-c3ccccc3)c2=O)S(C)(=O)=O)c1 (centres undefined) | i | -0.9% | 9.06e-08 | -2.1% | i
O=C(NCC(F)(F)F)N1CCOCC1 | i | . | 5.8e-08 | . | i
COc1cccc(C(=O)OC(C)CN2CCCC2)c1 (centres undefined) | i | 3.8% | 2.33e-08 | 0.3% | i
COc1ccc(/C(O)=C2\C(=O)C(=O)N(c3cc(C)on3)C2c2ccccc2OC)cc1C (centres undefined) | i | . | 2.94e-08 | . | i
O=C(Nc1ccc2c(c1)OCCO2)c1c(F)c(F)c(F)c(F)c1F | i | 23.4% | 8.8e-09 | 0.9% | i
Cc1c(NC(=O)Cn2nc(C(=O)O)c3ccccc3c2=O)c(=O)n(-c2ccccc2)n1C | i | 1.1% | 1.45e-08 | -0.1% | i
CS(=O)(=O)Nc1ccc(OCc2ccccc2)cc1 | . | -4.5%[11.4 µM] | . | 0.1% | .
O=C(COC(=O)c1ccccc1S(=O)(=O)N1CCCCC1)NCC(F)(F)F | i | ? | 1.55e-08 | 0.7% | i
O=C(NCc1cccnc1)c1ccccc1Br | . | ? | . | 2.6% | .
O=C(CSc1ncnc2c1oc1ccccc12)Nc1ccc2c(c1)OCCO2 | i | ? | 4.7e-09 | 0.4% | i
Cc1cccc(N(Cc2cc3ccccc3[nH]c2=O)C(=O)c2ccco2)c1C | i | . | 3.45e-08 | . | i
Cc1c(NC(=O)OCCNC(=O)Nc2ccccc2)sc(=S)n1C | i | ? | 1.68e-08 | 3.1% | i
CCCS(=O)(=O)N1CCN(Cc2ccncc2)CC1 | i | -0.7% | 3.04e-08 | 0.8% | i
COc1ccccc1-c1nnc(SCC(=O)N2CCOCC2)o1 | . | 9.1% | . | 4.8% | .
O=C(C1CCCCC1)N1CCC(n2nnc3ccccc32)CC1 | i | -2.7% | 2e-09 | 2.3% | i
Clc1cccc(CSc2nnc([C@@H]3CCCN3)o2)c1 | i | 0.4% | 1e-09 | 0.8% | i
COC(=O)c1cc(CSc2nnc(-c3ccccc3)c(-c3ccccc3)n2)oc1C | i | 4.9% | 2.4e-08 | 1.5% | i
COc1ccc(CNC(=O)c2ccccc2SC)cc1 | i | -17.5% | 3.1e-09 | -1.0% | i
Cc1ccc(S(=O)(=O)NC(=O)NC(C)(C)C)cc1 | . | -0.6%[11.4 µM] | . | -0.3% | .
N#CCCN1CCN(S(=O)(=O)c2ccc(S(=O)(=O)N3CCCCCC3)cc2)CC1 | . | -5.4% | . | 0.8% | .
Cc1cc(C)nc(N2CCC(C(=O)Nc3nnc(C)s3)CC2)n1 | i | 11.3% | 1e-09 | 1.7% | i
COc1ccc(S(=O)(=O)N2CCN(CCO)CC2)cc1-c1nnc2c3ccccc3c(C)nn12 | . | 2.1% | . | -1.9% | .
COCCN(C(=O)Nc1ccccc1)C(C)c1cccnc1 (centres undefined) | . | 5.8% | . | 2.2% | .
CCc1nc(C)cn1S(=O)(=O)c1cc(Br)c(C)cc1OC | i | 18.1% | 1e-09 | 0.2% | i

Next part
SMILES | A488 fluor | TSHR ag | A647 fluor | AID923 | Resorufin autofl
Cc1ccc(N2CC(C(=O)OCc3ccccc3)CC2=O)cc1 (centres undefined) | . | 12.2% | . | 2.4% | .
CCN(CC)CCN1C(=O)C(=O)/C(=C(/O)c2ccc(F)cc2)C1c1ccncc1 (centres undefined) | i | . | 2.84e-08 | . | i
CC(NC(=O)C1CCCN(S(=O)(=O)c2cccs2)C1)c1ccccc1 (centres undefined) | . | -7.3% | . | -1.7% | .
CCc1cc2c(nc1CC)CCN(CC/C(C)=N/O[C@@H](C)CN1CCCc3nc(C)c(C)cc31)C2 | . | 18.6%[11.4 µM] | . | 1.1%[11.5 µM] | .
Cc1cc(C)nc(SCC2COc3ccccc3O2)n1 (centres undefined) | . | 29.5% | . | 0.1% | .
Cc1cccc(N2CCN(C(=O)C34CC5CC(CC(C5)C3)C4)CC2)c1C | i | 23.4% | 1.16e-08 | 1.4% | i
CC(C)(CNCC(O)c1ccccc1)N1CCOCC1 (centres undefined) | i | 15.4% | 1e-09 | 0.6% | i
O=C(Nc1ccc2c(c1)OCO2)C1CCN(S(=O)(=O)Cc2ccccc2)CC1 | i | -2.1% | 1.8e-09 | -1.0% | i
O=C(Nc1ccccc1C1CC1)c1cccs1 | . | 17.2% | . | 0.6% | .
CC(=O)Nc1cccc(O)c1 | . | 12.0% | . | -2.3% | .

Arranged by molecular weight (lowest first): 6 of the compounds above.
SMILES | A488 fluor | TSHR ag | A647 fluor | AID923 | Resorufin autofl
O=C(Nc1ccccc1C1CC1)c1cccs1 | . | 17.2% | . | 0.6% | .
Cc1cc(C)nc(SCC2COc3ccccc3O2)n1 (centres undefined) | . | 29.5% | . | 0.1% | .
Cc1ccc(N2CC(C(=O)OCc3ccccc3)CC2=O)cc1 (centres undefined) | . | 12.2% | . | 2.4% | .
Cc1cccc(N2CCN(C(=O)C34CC5CC(CC(C5)C3)C4)CC2)c1C | i | 23.4% | 1.16e-08 | 1.4% | i
CCN(CC)CCN1C(=O)C(=O)/C(=C(/O)c2ccc(F)cc2)C1c1ccncc1 (centres undefined) | i | . | 2.84e-08 | . | i
CCc1cc2c(nc1CC)CCN(CC/C(C)=N/O[C@@H](C)CN1CCCc3nc(C)c(C)cc31)C2 | . | 18.6%[11.4 µM] | . | 1.1%[11.5 µM] | .

(further entries)
SMILES | A488 fluor | TSHR ag | A647 fluor | AID923 | Resorufin autofl
O/N=C1\CCc2cc(Cl)ccc21 | i | . | 1.4e-09 | . | i
CSc1cccc(-n2cc(-c3ccc4c(c3)OCO4)[nH]c2=O)c1 | i | -0.5% | 1e-09 | 1.0% | i
CCOc1ccc(-c2nc(CSCC(=O)NCCN3CCOCC3)c(C)o2)cc1 | i | 0.9% | 3.82e-08 | 0.0% | i
Cc1ccc(C(=O)N2CCCC(c3nc4c(nnn4Cc4ccccc4)c(=O)[nH]3)C2)cc1 (centres undefined) | i | ? | 3e-09 | 2.2% | i
C=CCN1C(=O)CS/C1=C(\C#N)S(=O)(=O)c1ccc(C)cc1 | i | -9.7% | 2.05e-08 | -1.3% | i
CCOC(=O)c1cn(CC)c2cc(N3CCCCC3)c(F)cc2c1=O | i | 23.4% | 1.84e-08 | -0.9% | i
COC(=O)[C@@H]1CC[C@H](C)[C@@H](c2ccc(C)cc2)N1C(=O)c1ccc(/C=N\OC[C@@H]2O[C@H](c3ccccc3)C=C[C@@H]2Oc2ccc(OC)cc2)cc1 | . | 9.0%[11.4 µM] | . | -1.6%[11.5 µM] | .
Cc1nc(NCCN2CCOCC2)c2nnn(Cc3c(F)cccc3Cl)c2n1 | i | -4.4% | 5.6e-09 | -0.6% | i
CCOC(=O)c1[nH]c2ccccc2c1NC(=O)c1cc(OC)c(OC)c(OC)c1 | i | 10.2% | 1e-09 | 0.0% | i
O=C1CCCc2nn(-c3ccccc3)c(-c3ccncc3)c21 | i | -1.6% | 2.59e-08 | 0.6% | i
COc1ccc(C(=O)NCCCn2ccnc2)cc1 | i | ? | 1e-09 | 0.9% | i
Cc1ccccc1OCCCC(=O)Nc1ccc(N2CCOCC2)cc1 | . | 14.9%[11.4 µM] | . | -0.3% | .
O=C(Nc1ccccc1)N1CCC2(CC1)CCN(C(=O)c1csnn1)CC2 | i | 3.98µM* | 1.1e-09 | 0.8% | i
CCCc1nnc(NC(=O)c2c(O)c3cccc4c3n(c2=O)CC4)s1 | i | 1.8% | 1e-09 | -1.1% | i
CS(=O)(=O)N(Cc1ccccc1)c1ccccc1C(=O)O | . | 11.6% | . | 1.3% | .
O=C(Nc1ccc(Br)cc1F)C1CCCN(S(=O)(=O)c2cnc[nH]2)C1 (centres undefined) | . | -5.0% | . | -1.2% | .
Cc1ccc(CNC(=O)CS(=O)Cc2nc(-c3cccs3)oc2C)cc1 (centres undefined) | . | 10.7% | . | 2.6% | .
COc1ccc(NC(=O)CN(c2ccc(C(C)C)cc2)S(=O)(=O)c2c(C)noc2C)cc1OC | . | 13.0% | . | -5.9% | .
CCCCC(CC)CNC(=O)C1CCCN(S(=O)(=O)c2cnc[nH]2)C1 (centres undefined) | . | 4.6% | . | -1.6% | .

Some of the compounds tested; count on the stated rates, not on these rows.
